FGF22 binding: FGF22 (human) thermal shift binding | recombinant FGF22 thermal shift, SYPRO orange fluorescence; percent of sucrose octasulfate shift, DMSO zero | calls only at 9.99 µM | actives 1.5% (n = 340,000) | AID 651658;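 active means melting point raised past a set limit in the mean and every replicate; three in four hits are not shown here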
Target sequence (Q9HCT0 whole entry, looked up): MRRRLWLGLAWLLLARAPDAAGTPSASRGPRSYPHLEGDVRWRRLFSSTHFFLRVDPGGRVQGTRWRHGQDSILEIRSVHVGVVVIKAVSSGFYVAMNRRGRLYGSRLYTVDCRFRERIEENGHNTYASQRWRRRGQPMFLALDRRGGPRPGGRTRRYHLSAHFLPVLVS
AF4-AF9 inh: blocks AF4 peptide binding to human AF9; P42568; AlphaScreen, biotin-AF4 peptide binding to FLAG-AF9; inhibition, % at 10 µM; actives 0.47% (n = 350,000); AID 651704;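 active means every replicate reaching a set inhibition limit, whatever the replicate mean, cut at about 25% in these data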;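 further: 0% = plate neutral control median and 100% = total signal loss; the record names both 10 and 1 µM as test concentration; the first replicate is given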
Target sequence (P42568 whole entry, looked up): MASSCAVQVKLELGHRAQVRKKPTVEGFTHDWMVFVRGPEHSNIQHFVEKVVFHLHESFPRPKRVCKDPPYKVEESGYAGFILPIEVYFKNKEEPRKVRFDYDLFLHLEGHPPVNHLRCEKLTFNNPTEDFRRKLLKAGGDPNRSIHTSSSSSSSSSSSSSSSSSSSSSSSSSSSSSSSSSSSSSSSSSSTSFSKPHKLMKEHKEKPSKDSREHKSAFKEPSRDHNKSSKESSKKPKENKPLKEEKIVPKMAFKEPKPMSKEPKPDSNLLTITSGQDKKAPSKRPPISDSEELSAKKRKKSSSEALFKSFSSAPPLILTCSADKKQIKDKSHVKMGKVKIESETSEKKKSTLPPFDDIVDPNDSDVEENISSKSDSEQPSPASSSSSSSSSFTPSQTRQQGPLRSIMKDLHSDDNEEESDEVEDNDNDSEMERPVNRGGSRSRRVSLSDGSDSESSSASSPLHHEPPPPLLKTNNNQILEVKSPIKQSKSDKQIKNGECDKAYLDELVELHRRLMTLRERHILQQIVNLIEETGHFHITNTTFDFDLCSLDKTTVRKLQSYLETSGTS
rRNA inh HTS: inhibitors of bacterial rRNA selective over humanized ribosomes; E. coli WT GFP vs humanized-ribosome RFP mutants, fluorescence, 24 h; active compounds read low; DMSO median 0, no signal -100; GFP signal change (wild-type ribosome), % (no concentration beside the values); actives 1.6% (n = 350,000); AID 720706;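 active means significant combined selectivity score with lowered wild-type GFP, culture density cut under 30%, mutant RFP and density less affected; inactive means any of these conditions unmet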; further: one replicate is shown; some compounds called inactive have numbers as strong as hits
rRNA inh HTS OD600: further read-out of rRNA inh HTS, marked with its call; OD600 change, %; measured here: OD600 growth;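 optical density of the mix in the first replicate; 0 = DMSO median and -100 = no signal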
rRNA inh HTS RFP: second read-out of rRNA inh HTS, no call of its own (marks repeat the call); RFP signal change, %; measured here: RFP humanized mutant strains;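 first replicate; 0 = DMSO median and -100 = no signal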
Numbers without * were called inactive; i = inactive; + = active, no number; & = joins results of further samples. Some of the compounds tested; count on the stated rates, not on these rows.

FGF22 binding | rRNA inh HTS | AF4-AF9 inh | rRNA inh HTS RFP | rRNA inh HTS OD600 | SMILES
i | 18.8 | -4.2 | 2.9 | 14.2 | CC1(C(=O)NS(=O)(=O)c2cccc(C#N)c2)CCN1C(=O)CCc1ccccc1 (stereo not given)
i | -6.4 | 2.3 | 4.0 | -11.2 | CO[C@@H]1CN(C)C(=O)c2ccc(NC(C)=O)cc2OC[C@@H](C)N(Cc2ccc(-c3ccccn3)cc2)C[C@H]1C
i | -57.8 | -21.3 | -13.6 | -69.6 | OC[C@@H]1[C@@H](c2ccc(-c3ccccc3)cc2)[C@@H]2CN(Cc3ccccn3)CCCCN12
i | 1.8 | -0.1 | 0.3 | 8.1 | O=C(C[C@@H]1CC[C@H](NC(=O)CN2CCOCC2)[C@H](CO)O1)NCCc1ccncc1
i | 3.2 | -5.1 | -1.4 | 8.9 | CCCC#Cc1cnc2c(c1)C(=O)N([C@@H](C)CO)C[C@H](C)[C@H](CN(C)C(=O)c1cccc(F)c1)O2
i | 3.3 | -1.0 | 2.1 | -1.9 | COc1cc(NC(=O)CC[C@H]2O[C@@H](n3cnc4c(NC(=O)c5ccccc5)ncnc43)[C@H](O)[C@@H]2O)cc(OC)c1OC
i | 0.6 | 2.4 | -1.2 | 12.6 | COc1cccc(NC(=O)N(C)C[C@@H]2Oc3cc(/C=C/c4ccccc4)ccc3S(=O)(=O)N([C@H](C)CO)C[C@@H]2C)c1
i | 1.1 | 0.1 | 4.5 | 4.2 | Cc1ccccc1-c1ccc2c(c1)O[C@@H](CN(C)C(=O)Nc1ccc(F)cc1)[C@H](C)CN([C@H](C)CO)S2(=O)=O
i | -5.2 | -0.8 | 1.6 | -0.3 | O=C(C[C@H]1CC[C@H]2[C@@H](COC[C@H](O)CN2Cc2ccc(F)cc2)O1)NCCc1ccccc1
i | -9.3 | 6.1 | 0.3 | 1.5 | C[C@H](CO)N1C[C@H](C)[C@H](CN(C)C(=O)c2ccc3c(c2)OCO3)Oc2ncc(/C=C/c3ccccc3)cc2C1=O
i | -0.7 | 0.5 | -0.7 | 0.8 | Cc1ccc(S(=O)(=O)N(C)C[C@@H]2Oc3ccc(NC(=O)c4ccncc4)cc3CC(=O)N([C@H](C)CO)C[C@H]2C)cc1
i | 10.3 | -0.3 | 0.5 | 28.5 | COC(=O)c1ccc(Cn2c(C)c(C(=O)NCc3ccco3)sc2=O)o1
i | 0.6 | -1.5 | 0.3 | -0.7 | CN1C(=O)c2cc(NC(=O)c3ccc(F)cc3)ccc2OC[C@@H]2O[C@H](CC(=O)NCC3CC3)CC[C@H]21
i | -1.2 | -13.3 | 0.0 | 6.3 | COc1ccc(S(=O)(=O)N(C)C[C@H]2Oc3c(NS(=O)(=O)c4cccs4)cccc3C(=O)N([C@@H](C)CO)C[C@H]2C)cc1
i | 0.5 | -0.2 | -1.6 | 6.6 | COc1ccccc1S(=O)(=O)N[C@H]1CC[C@@H](CC(=O)N2CCOCC2)O[C@@H]1CO
i | 1.1 | -3.8 | 0.6 | 5.7 | COc1cccc(-c2cnc3c(c2)C(=O)N([C@H](C)CO)C[C@H](C)[C@@H](CN(C)CC2CCOCC2)O3)c1
i | 5.0 | -1.3 | -1.3 | 11.4 | O=C(C[C@H]1C[C@@H]2c3cc(NC(=O)CC4CC4)ccc3O[C@@H]2[C@H](CO)O1)NCc1cccnc1
i | 3.0 | -2.2 | -3.0 | 15.4 | CNC[C@H]1Oc2ccc(NC(=O)CCN3CCOCC3)cc2C(=O)N([C@H](C)CO)C[C@H]1C
i | -3.4 | -2.6 | -2.8 | -5.0 | C[C@@H]1CN([C@@H](C)CO)C(=O)c2cccc(NC(=O)c3nc4ccccc4s3)c2O[C@H]1CN(C)S(=O)(=O)c1ccccc1
i | 0.5 | 3.2 | 2.1 | -3.1 | CC(=O)N(C[C@H]1N[C@H](CO)[C@@H]1c1ccc(-c2ccc(F)cc2)cc1)C(C)C
i | -0.8 | -1.9 | -1.2 | 0.4 | C[C@@H]1CCCCO[C@H](CN(C)S(=O)(=O)c2ccc(Cl)cc2)[C@@H](C)CN([C@H](C)CO)C(=O)c2cc(NS(=O)(=O)c3cccs3)ccc2O1
i | -0.4 | 1.7 | -1.3 | -3.0 | O=C(C[C@@H]1C=C[C@H](NC(=O)Nc2ccc3c(c2)OCO3)[C@@H](CO)O1)NCc1ccc(F)cc1
i | 3.9 | -1.3 | 0.0 | 17.8 | COc1ccccc1-c1ccccc1[C@H]1[C@@H](C#N)N(C(=O)CN(C)C)[C@H]1CO
i | 3.7 | -1.2 | 2.6 | 12.8 | COc1ccc(OC)c(CN2C(=O)CN(S(C)(=O)=O)CC2(C)C(=O)Nc2c(C)cccc2C)c1 (stereo not given)
i | 12.1 | -5.6 | 4.9 | 8.9 | Cc1ccnc(N=O)c1

The closing 6 compounds of the section before are carried over, then new ones follow.
FGF22 binding | rRNA inh HTS | AF4-AF9 inh | rRNA inh HTS RFP | rRNA inh HTS OD600 | SMILES
i | 0.5 | 3.2 | 2.1 | -3.1 | CC(=O)N(C[C@H]1N[C@H](CO)[C@@H]1c1ccc(-c2ccc(F)cc2)cc1)C(C)C
i | -0.8 | -1.9 | -1.2 | 0.4 | C[C@@H]1CCCCO[C@H](CN(C)S(=O)(=O)c2ccc(Cl)cc2)[C@@H](C)CN([C@H](C)CO)C(=O)c2cc(NS(=O)(=O)c3cccs3)ccc2O1
i | -0.4 | 1.7 | -1.3 | -3.0 | O=C(C[C@@H]1C=C[C@H](NC(=O)Nc2ccc3c(c2)OCO3)[C@@H](CO)O1)NCc1ccc(F)cc1
i | 3.9 | -1.3 | 0.0 | 17.8 | COc1ccccc1-c1ccccc1[C@H]1[C@@H](C#N)N(C(=O)CN(C)C)[C@H]1CO
i | 3.7 | -1.2 | 2.6 | 12.8 | COc1ccc(OC)c(CN2C(=O)CN(S(C)(=O)=O)CC2(C)C(=O)Nc2c(C)cccc2C)c1 (stereo not given)
i | 12.1 | -5.6 | 4.9 | 8.9 | Cc1ccnc(N=O)c1
i | -51.2 | -0.3 | -18.1 | -75.7 | CC1(C)C(=Cc2ccccc2)C(=O)c2ccccc21
i | -1.4 | -0.2 | 1.0 | -6.0 | CCCNC(=O)Nc1ccc2c(c1)OC[C@H](C)N(CCC)C[C@H](C)[C@@H](OC)CN(C)C2=O
i | 4.6 | 0.2 | -0.2 | 6.8 | O=C(C[C@H]1C=C[C@H](NC(=O)CC2CC2)[C@H](CO)O1)NCc1ccc(-c2ccccc2)cc1
i | -5.8 | -4.2 | 0.3 | -10.9 | C[C@@H]1CN([C@@H](C)CO)S(=O)(=O)c2ccc(-c3ccncc3)cc2O[C@H]1CN(C)Cc1cccnc1
i | 7.2 | -4.4 | 0.1 | 16.5 | CN(C)c1cccc(CNC(=O)c2ccc3nc([C@H]4C[C@H](O)[C@@H](CO)O4)[nH]c3c2)c1
i | -2.5 | -0.9 | -1.5 | -16.1 | C[C@@H]1CN([C@H](C)CO)C(=O)c2cc(NC(=O)CCC(F)(F)F)ccc2O[C@@H]1CN(C)Cc1ccc(C(F)(F)F)cc1
i | 25.9 | -2.3 | 22.6 | 14.5 | CCOC(=O)C1CCC(C(=O)OCC)N1c1ccc(C=O)cc1 (stereo not given)
i | 11.7 | -1.5 | 2.3 | 7.4 | CCOc1ccc(NC(=O)CN(C)C(=O)c2cccc(S(=O)(=O)N3CCCC3)c2)cc1OCC
i | 3.4 | 0.5 | -1.2 | 1.5 | COC(=O)C[C@H]1CC[C@H]2[C@@H](COC[C@H](O)CN2C(=O)Nc2ccccc2OC)O1
i | 5.6 | -1.4 | 2.2 | 7.5 | COc1ccc(C#Cc2ccc3c(c2)O[C@@H](CN(C)S(=O)(=O)c2ccccc2F)[C@@H](C)CN([C@H](C)CO)S3(=O)=O)cc1
+ | 2.3 | -1.3 | -1.6 | 5.3 | COc1ccc(CN(C)C[C@H]2Oc3ccc(NC(=O)Cc4ccccc4)cc3C(=O)N([C@H](C)CO)C[C@@H]2C)cc1
i | 11.3 | 0.5 | 2.8 | 10.9 | CC(=O)Nc1ccc(NC(=O)CC2(CC(=O)N3CCOCC3)CCCC2)cc1
i | 2.3 | -1.9 | 2.5 | -1.7 | C[C@@H](NC(=O)C[C@@H]1C[C@@H]2c3cc(NC(=O)Nc4ccccc4F)ccc3O[C@@H]2[C@H](CO)O1)c1ccccc1
i | -0.7 | -0.1 | -3.5 | 2.8 | CO[C@@H]1CN(C)C(=O)c2cc(NC(=O)NC3CCCCC3)ccc2OC[C@@H](C)N(CC2CC2)C[C@H]1C
i | 2.6 | -2.1 | 0.6 | 2.2 | CCS(=O)(=O)N[C@H]1C=C[C@@H](CC(=O)N2CCCCC2)O[C@@H]1CO
i | -1.5 | -7.0 | 0.1 | -3.1 | Cc1ccc(-c2ccc3c(c2)O[C@@H](CN(C)C)[C@H](C)CN([C@@H](C)CO)S3(=O)=O)cc1
i | -58.3 | 1.3 | -23.6 | -78.3 | O=C(C[C@H]1CC[C@@H]2[C@H](COC[C@@H](O)CN2C(=O)Nc2ccc(Cl)c(Cl)c2)O1)NCc1ccccc1
i | 4.4 | -0.6 | -0.5 | 19.5 | CNC[C@@H]1Oc2ccc(NC(=O)C3CC3)cc2C(=O)N([C@H](C)CO)C[C@@H]1C
i | 1.3 | 1.4 | 34.7 | -29.4 | CC(=O)Nc1ccc(C(C#N)=Cc2ccc(N(C)CCC#N)cc2)cc1
i | -1.3 | -9.5 | -1.6 | 4.4 | COc1ccc(CN(C)C[C@H]2Oc3ccc(NC(=O)Cc4ccccc4)cc3CC(=O)N([C@@H](C)CO)C[C@H]2C)cc1
i | 1.9 | -11.2 | -2.5 | -0.2 | O=C(C[C@@H]1C=C[C@H](NC(=O)Nc2ccccc2)[C@@H](CO)O1)NCc1cccc(F)c1
i | -13.3 | 0.5 | 1.6 | -17.7 | O=S(=O)(c1ccccc1)N1CC2(C1)[C@@H](c1ccccc1)[C@@H](CO)N2CCC(F)(F)F
i | -43.6 | 4.6 | -9.1 | -59.4 | O=C(c1cccc(F)c1)N1CCCCN2[C@H](CO)[C@H](c3ccc(/C=C/c4ccccc4)cc3)[C@H]2C1
i | 4.6 | -5.8 | -3.7 | 13.6 | CCS(=O)(=O)N1CC2(C1)CN(S(=O)(=O)c1cn(C)cn1)[C@@H](CO)c1[nH]c3cc(OC)ccc3c12
i | -4.6 | 1.8 | -1.0 | -6.9 | Cc1ccc(S(=O)(=O)N(C)C[C@H]2Oc3c(NC(=O)Nc4ccc(F)cc4)cccc3C(=O)N([C@H](C)CO)C[C@H]2C)cc1
i | 0.6 | 3.5 | 1.2 | 8.7 | COc1ccc2c3c([nH]c2c1)[C@@H](CO)N(S(C)(=O)=O)CC31CN(CC2CC2)C1
i | 0.3 | -2.2 | 1.8 | -2.2 | C[C@H](CO)N1C[C@H](C)[C@H](CN(C)Cc2ccncc2)OCc2ccccc2-c2ccccc2C1=O
i | -3.0 | 1.6 | 3.4 | 3.3 | C[C@H](CO)N1C[C@H](C)[C@H](CN(C)C(=O)Nc2cccc3ccccc23)Oc2ccc(NS(=O)(=O)c3ccc(Cl)cc3)cc2CC1=O
i | 6.7 | -11.6 | -0.6 | 15.0 | CNC[C@@H]1Oc2ccc(NC(=O)c3ccncc3)cc2C(=O)N([C@H](C)CO)C[C@@H]1C
i | 3.7 | 1.6 | 1.7 | 6.9 | Cc1ccc(C2(C)NC(=O)N(CC(=O)Nc3cc(S(=O)(=O)N4CCOCC4)ccc3OC(C)C)C2=O)cc1 (stereo not given)
i | 5.1 | 0.4 | 1.2 | 4.6 | Cc1noc(C)c1S(=O)(=O)N(C)C[C@H]1OCCCC[C@@H](C)Oc2ccc(NC(=O)NC3CCCCC3)cc2C(=O)N([C@H](C)CO)C[C@@H]1C
i | -1.1 | 3.4 | 2.1 | 4.1 | C[C@H]1CCCCO[C@H](CN(C)Cc2ccc(C(F)(F)F)cc2)[C@@H](C)CN([C@@H](C)CO)C(=O)c2cc(NC(=O)Nc3ccc(F)cc3)ccc2O1
i | 1.9 | 3.2 | -1.8 | 9.9 | C[C@@H]1CCCCO[C@@H](CN(C)S(=O)(=O)c2cn(C)cn2)[C@H](C)CN([C@H](C)CO)C(=O)c2cc(NS(=O)(=O)c3ccccc3)ccc2O1
i | -0.5 | -1.7 | 0.0 | 3.2 | CCS(=O)(=O)N[C@@H]1C=C[C@H](CC(=O)N2CCCCC2)O[C@H]1CO
i | -1.1 | -2.4 | -0.8 | -6.2 | C[C@H](CO)N1C[C@H](C)[C@H](CN(C)Cc2ccncc2)Oc2c(NC(=O)Nc3ccc4c(c3)OCO4)cccc2C1=O
i | 3.7 | -4.9 | 1.6 | -0.3 | C[C@H]1CN([C@@H](C)CO)C(=O)c2cc(C#CC(C)(C)O)cnc2O[C@H]1CN(C)C(=O)CC1CC1
i | 12.7 | -6.7 | -1.4 | 10.7 | CCN(C[C@H]1N[C@@](CC)(C(=O)OC)[C@H]2C(=O)N(Cc3ccccc3)C(=O)[C@@H]12)C(=O)Nc1ccc(C)cc1
i | -0.6&-60.7 | 6.9 | 0.5&-19.0 | -2.8&-79.7 | O=C(NCC[C@H]1CC[C@@H](NC(=O)c2cccnc2)[C@@H](CO)O1)Nc1ccc(C(F)(F)F)cc1
i | -17.9 | -2.4 | -6.2 | -26.0 | CCOC(=O)c1ccc(Nc2ccc(C(C)=O)cc2)cc1
i | -37.0 | 1.0 | 3.0 | -62.6 | N#Cc1cccc(-c2ccc([C@H]3[C@H](CO)N4CCCCN(C(=O)Nc5ccc(F)cc5)C[C@@H]34)cc2)c1

Bioassay records as filed in PubChem.
